# Source: PubChem (several laboratories)
# Vif A3G = HIV-1 Vif–A3G interaction blockers – biochemical, TR-FRET, GST-Vif 1-94, biotin-A3G peptide, dose response retest, primary screen (AID 1117319); TR-FRET GST-Vif / biotin-A3G peptide binding; higher % means a stronger effect; test concentration not given here; strong numbers were not always called active; one-dose inhibition, %; IC50 in µM for titrated hits; 260,000 tested, 0.57% active;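 active = above the screen mean plus three standard deviations and confirmed in dose response; inconclusive = results disagree or hit not tested in dose response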;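 note: Vif residues 1-94 fused to GST binding biotinylated APOBEC3G peptide 110-148; 0% = full assay without inhibitor and 100% = GST in place of GST-Vif; retest series ran down from 100 µM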
# T cruzi inh = T. cruzi replication inhibition; 300,000 tested, 1.4% active; T. cruzi beta-gal in NIH3T3, luminescence, 90 h; inhibition, % (concentration not given with the values);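 active = mean inhibition across valid replicates above about 55%, limit read from the data; inconclusive = mean below that limit but half or more replicates reach it; inactive = mean below it, under half of replicates reach it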;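 note: signal also drops with host cell toxicity which is not excluded here; 0% = plate median of DMSO wells and 100% = zero luminescence signal; higher percent means less beta-gal luminescence so fewer parasites; stock transfer was 50 nL into about 50 µL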
# Calb FLC = C. albicans growth modulation with fluconazole. C. albicans CaCi-2 (fluconazole-resistant clinical isolate) + fluconazole, Alamar Blue growth, 48 h. growth inhibition, % (concentration not given with the values). 300,000 tested, 0.57% active. AID 1979;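 active = most replicates above 75%; inconclusive = exactly half above 75%; inactive = most below 75%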;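 note: all wells also contain fluconazole at 8 µg/ml as a sub-toxic cotreatment; 0% = median of DMSO wells and 100% = median of geldanamycin control wells; wells of about 8 µL received 7.5 nL stock; the first replicate is given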
# RanGTP-Imp inh = inhibitors of RanGTP-importin-beta interaction, primary screen, biochemical, FRET, CFP-Ran, YFP-importin-beta, homogeneous; cell-free CFP-Ran/YFP-importin-beta FRET ratio; inhibition, % (test concentration not listed); 300,000 tested, 1.1% active; AID 2216;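 active = most replicates above 15%; inconclusive = exactly half above 15%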;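 note: 0% = DMSO wells and 100% = Ran loaded with GDP instead of GTP; wells of about 40 µL received 100 nL stock; the first replicate is given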
# Beta cell apopt = beta cell apoptosis inhibition; protection from apoptosis, % (test concentration not listed); INS-1E cytokine-induced death, ATP luminescence, 48 h; percent of positive-control rescue, neutral wells zero; 300,000 tested, 0.8% active;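 active = all replicates at 75% or more, or half of them and the mean; inconclusive = half reach 75% but not the mean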;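 note: 0% = cytokine-treated negative control wells and 100% = positive control rescue; higher means more ATP so stronger rescue from cytokine killing; wells of about 40 µL received 100 nL stock; the first replicate is given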
# AF4-AF9 inh = blocks AF4 peptide binding to human AF9 | inhibition, % at 10 µM | AlphaScreen, biotin-AF4 peptide binding to FLAG-AF9 | AID 651704 | P42568 | 350,000 tested, 0.47% active;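 active = every replicate reaching a set inhibition limit, whatever the replicate mean, cut at about 25% in these data; inconclusive = mean inhibition reaches that limit but some replicates miss it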;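 note: 0% = plate neutral control median and 100% = total signal loss; the record names both 10 and 1 µM as test concentration; the first replicate is given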
# LANA-H2B inh = blocks KSHV LANA binding to histone H2A/H2B; Q9QR71; cell-free LANA-H2A/H2B peptide, fluorescence polarization; inhibition, % (test concentration not listed); 320,000 tested, 0.6% active; AID 2629; in the data active = inhibition mostly above about 10%, no sharp cut-off; inactive = mostly below about 6.7%;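 note: stock transfer was 7.5 nL into about 10 µL; 0% = median of vehicle wells and 100% = median of positive control wells; one replicate is shown; the record names a cut of 25% in any replicate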
# Target sequence (Q9QR71 whole entry, looked up): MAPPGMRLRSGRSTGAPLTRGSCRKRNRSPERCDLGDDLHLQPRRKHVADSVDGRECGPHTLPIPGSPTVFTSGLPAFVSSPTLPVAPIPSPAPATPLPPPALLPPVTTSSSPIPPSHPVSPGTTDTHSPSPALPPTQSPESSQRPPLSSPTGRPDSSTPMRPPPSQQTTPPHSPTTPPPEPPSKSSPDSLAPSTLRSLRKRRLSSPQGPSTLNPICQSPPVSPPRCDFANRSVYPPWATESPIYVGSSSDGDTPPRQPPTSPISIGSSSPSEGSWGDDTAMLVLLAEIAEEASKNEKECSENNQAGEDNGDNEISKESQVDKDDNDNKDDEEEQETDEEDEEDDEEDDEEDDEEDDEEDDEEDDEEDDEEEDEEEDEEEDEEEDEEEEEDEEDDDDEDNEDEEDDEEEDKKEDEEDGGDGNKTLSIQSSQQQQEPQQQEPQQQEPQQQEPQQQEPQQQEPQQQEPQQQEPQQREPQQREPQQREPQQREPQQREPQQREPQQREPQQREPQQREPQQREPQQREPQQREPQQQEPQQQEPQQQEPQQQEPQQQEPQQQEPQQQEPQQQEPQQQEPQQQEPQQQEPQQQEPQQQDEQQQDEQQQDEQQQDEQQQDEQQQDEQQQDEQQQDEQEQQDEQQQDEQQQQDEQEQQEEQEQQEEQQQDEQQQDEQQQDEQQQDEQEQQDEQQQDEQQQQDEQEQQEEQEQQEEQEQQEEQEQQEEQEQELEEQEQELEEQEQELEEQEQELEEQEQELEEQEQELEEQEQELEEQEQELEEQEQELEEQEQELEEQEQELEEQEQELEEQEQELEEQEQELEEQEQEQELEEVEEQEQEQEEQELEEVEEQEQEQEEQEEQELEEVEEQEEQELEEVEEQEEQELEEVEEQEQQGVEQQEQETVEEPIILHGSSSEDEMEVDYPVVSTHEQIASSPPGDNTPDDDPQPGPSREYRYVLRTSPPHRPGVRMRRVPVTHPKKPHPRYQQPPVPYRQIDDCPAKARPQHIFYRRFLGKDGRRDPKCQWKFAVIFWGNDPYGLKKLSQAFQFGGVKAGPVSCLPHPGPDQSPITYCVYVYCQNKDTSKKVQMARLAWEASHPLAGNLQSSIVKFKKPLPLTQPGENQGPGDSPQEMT
# Bfl-1 A1 inh = inhibitors of the anti-apoptotic protein A1, read as caspase activation. MEF A1-2A-BIM cells, Caspase-Glo 3/7 luminescence, 3 h; percent of clofoctol response, vehicle zero. caspase activation, % (concentration not given with the values). 330,000 tested, 0.066% active. AID 2462;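 active = over half of replicate activation scores above 10%, or exactly half above 10 with the replicate mean above 10; inconclusive = replicate mean below 10 yet half the replicates above 10; inactive = over half of replicates below 10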;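 note: wells of about 30 µL received 50 nL stock; many hits fall short of the cut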
# * = called active by the depositor; ? = inconclusive; . = not tested or not shown; & = joins results of further samples. No enrichment for hits; overall some 4.3% were active at least once.
entry	compound	Vif A3G	LANA-H2B inh	AF4-AF9 inh	Bfl-1 A1 inh
1	CC(C)NC(=O)/C(C#N)=C\c1ccc(N(C)C)c(Br)c1	1%	3.2	2.0	0.0
2	CC(C)CNC(=S)Nc1ccc(S(N)(=O)=O)cc1	1%	2.2	.	0.0
3	Cc1cc(=O)[nH]c(SCC(=O)Nc2ccc(Br)cc2)n1	-8%	-3.9	3.8	0.1
4	CCOc1ccc(N(CC(=O)NC2CCCC2)C(=O)CSc2nnc(COc3ccccc3)o2)cc1	-4%	11	.	-1.1
5	Cc1ccc(CNC(=O)COC(=O)CCOc2ccc(C)cc2)cc1	5%	-1.3	-0.6	-0.5
6	CCOC(=O)c1sc(NC(=O)CCN2CCC(C)CC2)c(C(=O)OCC)c1C	.	0.1	-1.3	-0.3
7	COc1cc(C)c(C(C)C)cc1S(=O)(=O)n1cnc(C)c1	-3%	-0.9	-0.1	1.3
8	Cc1ccc[n+](CC(=O)Nc2cc(C(F)(F)F)ccc2N2CCOCC2)c1	.	-3.4	2.0	0.6
9	COc1cccc(CN2CCN(Cc3ccc(OC)c(OC)c3)CC2CCO)c1 (stereo not given)	-7%	2.5	0.2	0.5
10	CN(c1ccccc1)S(=O)(=O)c1ccc(Cl)c(C(=O)Nc2nc3ccccc3[nH]2)c1	-6%	-6.8	.	0.9
11	CC(C)C(NC(=O)c1ccccc1)C(=O)NC1=NCCS1 (stereo not given)	6%	0.2	.	-0.2
12	COc1ccc(CC(=O)NCC2CCCCC2)cc1OC	-5%	4.1	0.8	0.8

entry	RanGTP-Imp inh	Beta cell apopt	Calb FLC	T cruzi inh
1	0.7	-9	2	3
2	-3.6	-3	-1	-4
3	-2.2	0	5	7
4	0.0	3	-9	21
5	-0.5	1	-2	-1
6	3.1	-2	11	-5
7	-2.1	0	-9	30
8	-1.6	-6	12	-2
9	-2.0	-3	-6	2
10	6.3	21	2	-2
11	-0.7	-4	-23	7
12	-0.6	-4	.	-13

# (listing goes on)
entry	compound	Vif A3G	LANA-H2B inh	AF4-AF9 inh	Bfl-1 A1 inh
13	Cc1[nH]n(-c2ccccc2)c(=O)c1/C=N/n1c(C)nc2ccccc2c1=O	-3%	2.0	.	-0.7
14	Cc1ccc(CNS(=O)(=O)c2cc3c4c(c2)CCN4C(=O)CC3)cc1	0%	-4.8	-14	2.1
15	CCOC(=O)CCc1c(C)c2ccc(OC3CCCCC3=O)c(C)c2oc1=O (stereo not given)	-9%	-4.4	-0.2	-0.4
16	Cc1cc(C)cc(NC2=C(N)C(=O)c3ccccc3C2=O)c1	-4%	-1.1	.	-2.7
17	CCN(CC)CCNC(C(=O)Nc1cccc(C(C)=O)c1)c1ccccc1 (stereo not given)	.	1.8	12	-0.4
18	Cc1ccc(CSc2nnc(Cn3c(=O)sc4ccccc43)n2C)cc1	33%	-0.5	-0.4	-1.1
19	C[C@H](NC(=O)Cn1cncn1)c1ccccc1	6%	2.5	.	1.0
20	O=C(NCCS(=O)(=O)c1ccc(Br)cc1)c1c(F)cccc1F	.	-0.5	-0.3	1.7
21	CCN(CC)c1ccc(NC(=O)COc2ccccc2C#N)cc1S(=O)(=O)Nc1ccc(OC)cc1	.	-0.1	.	0.0
22	CCOC(=O)C1CCN(c2ncnc3c2oc2ccc(Br)cc23)CC1	1%	1.1	2.2	0.3
23	CCn1c2c(c3cc(C(=O)O)ccc31)CCCC2=O	-2%	-1.9	.	-1.2
24	Cc1cc(=O)oc2c(CN3CC(C)OC(C)C3)c(O)c(Cl)cc12 (stereo not given)	14%	6.7	-1.2	0.7

entry	RanGTP-Imp inh	Beta cell apopt	Calb FLC	T cruzi inh
13	-6.2	0	?	0
14	-0.1	-2	2	-20
15	11	0	8	-4
16	4.2	7	6	-4
17	2.2	-3	16	-11
18	1.4	1	5	14
19	2.8	1	-10	-1
20	3.7	5	2	-8
21	-2.4	.	-5	31
22	-2.2	-7	9	-18
23	-1.3	3	0	-1
24	34*	.	-7	-9

# Next part:
entry	compound	Vif A3G	LANA-H2B inh	AF4-AF9 inh	Bfl-1 A1 inh
25	COc1ccccc1NC(=O)N1CCC(C(=O)c2ccc(Cl)cc2)CC1	1%	-4.2	-0.7	1.9
26	CN(C(=O)c1cccnc1)c1nc(-c2ccccc2)cs1	0%	2.6	.	0.7
27	Cn1c(CSCC(=O)Nc2ccccc2)nnc1SCc1ccccc1	-12%	-5.9	1.5	0.2
28	CCOC(=O)c1c(C)nc2sc3c(c2c1-c1ccc(OC)cc1)NC(c1ccc(OC)cc1)NC3=O (stereo not given)	2%	-5.4	.	0.2
29	COCCNc1nc2c(c(=O)n(C)c(=O)n2C)n1Cc1cccc(C)c1	58%	-4.1	.	0.8
30	O=C(NCC(=O)N(c1ccccc1)C(C(=O)NCC1CCCO1)c1ccccc1)c1ccco1 (stereo not given)	-3%	0.3	.	1.7
31	CCn1c(SC(C)C(=O)O)nnc1-c1cccnc1 (stereo not given)	2%	4.5	.	0.8
32	CC(NC(=O)COc1ccc(S(=O)(=O)N2CCCC2)cc1)c1ccccc1 (stereo not given)	.	-0.1	-14	-0.9
33	O=C(O)CCCCCNS(=O)(=O)c1ccc2c(c1)OCCO2	6%	-2.0	-2.7	-0.9
34	Nc1c(C(=O)c2ccc(Cl)cc2)sc2nc3c(cc12)CCC3	-14%	-2.7	-6.1	-0.2
35	N#Cc1sc(=O)[nH]c1Cl	.	4.5	-5.4	-2.0
36	Cc1nonc1CN(C)C(=O)CC1C(=O)NCCN1Cc1ccc(F)c(F)c1 (stereo not given)	?	2.4	-15	-0.2

entry	RanGTP-Imp inh	Beta cell apopt	Calb FLC	T cruzi inh
25	-0.7	-3	-2	3
26	2.7	-8	-45	-15
27	-1.0	-1	-3	4
28	0.4	-4	3	29
29	-1.4	19	-3	4
30	?	-4	21	3
31	-8.3	0	11	-2
32	-1.9	0	-4	-5
33	0.5	1	-14	-6
34	?	-5	0	44
35	-3.0	0	-8	-12
36	-0.8	-4	-1	-4

# Other records.
entry	compound	Vif A3G	LANA-H2B inh	AF4-AF9 inh	Bfl-1 A1 inh
37	CC(OC(=O)Cc1coc2ccc3ccccc3c12)C(=O)NC(N)=O (stereo not given)	?	5.2	0.9	-0.4
38	COc1cc(C2C(C#N)=C(N)Oc3cc(C)oc(=O)c32)ccc1OC(=O)N1CCOCC1 (stereo not given)	-2%	-0.4	.	2.2
39	Cc1nn(Cc2ccccc2)c(C)c1NC(=O)c1cc(-c2ccco2)on1	16%	-0.6	.	0.1
40	COc1ccc(CNc2nnnn2C)c(OC)c1	-8%	-3.3	-0.7	-0.5
41	O=C1CC(c2ccco2)Cc2nc(N3CCc4ccccc4C3)ncc21 (stereo not given)	31%	-0.3	.	-0.3
42	Cc1cc(C)n2nc(CCCCc3nc4nc(C)cc(C)n4n3)nc2n1	-2%	1.8	.	-0.3
43	CCN1CCN(CC(=O)N2c3ccccc3Sc3ccccc32)CC1	-2%	-0.6	3.3	-0.3
44	CCC(=Nc1ccccc1)C1=C(O)CCCC1=O	-2%	0.1	3.0	-0.2
45	CS(=O)(=O)Nc1ccccc1C(=O)Nc1cc(Cl)cc(Cl)c1	13%	2.1	.	1.8
46	Cc1cc(C)c(C)c(S(=O)(=O)N2CCC(C(=O)OCC(=O)N3c4ccccc4NC(=O)C3(C)C)CC2)c1C	19%	0.1	.	-0.7
47	COc1ccc2c(c1)C(=O)C(=O)N2	7%	5.5	2.8	0.7
48	CCN(CC)c1ccc(NC(=O)C2CC3CCC2C3)cc1 (stereo not given)	16%	-0.4	.	0.9

entry	RanGTP-Imp inh	Beta cell apopt	Calb FLC	T cruzi inh
37	-0.3	2	-10	-7
38	?	-5	-7	-8
39	-3.1	-7	18	7
40	-2.9	-6	-2	-16
41	-1.3	1	-5	1
42	-0.6	-3	-3	-11
43	-6.1	-11	-5	2
44	0.0	-1	-1	-14
45	-5.0	64	51	-25
46	1.6	-1	18	-11
47	-1.6	.	10	-16
48	0.2	8	-15	16

# Exported as tab-separated lines: two of the compounds above
item	Molecule	Vif A3G	LANA-H2B inh	AF4-AF9 inh	Bfl-1 A1 inh	RanGTP-Imp inh	Beta cell apopt	Calb FLC	T cruzi inh
43	CCN1CCN(CC(=O)N2c3ccccc3Sc3ccccc32)CC1	-2%	-0.6	3.3	-0.3	-6.1	-11	-5	2
44	CCC(=Nc1ccccc1)C1=C(O)CCCC1=O	-2%	0.1	3.0	-0.2	0.0	-1	-1	-14

# Next part:
entry	compound	Vif A3G	LANA-H2B inh	AF4-AF9 inh	Bfl-1 A1 inh
49	CN(c1ccccc1)S(=O)(=O)c1cccc(NC(=O)CC(C)(C)C)c1	-5%	0.7	-2.1	0.4
50	COc1ccc(C2NC(=O)Cc3cc(OC)c(OC)cc32)cc1OC (stereo not given)	?	-3.4	5.8	0.4
51	CC(=O)c1ccccc1NC(=O)COC(=O)c1cc2ccccc2[nH]1	-6%	3.9	-11	-0.7
52	CC(=O)c1sc2nc(SCC(=O)N3CCCCC3)[nH]c(=O)c2c1C	-33%&-1%	-5.0	.	0.6
53	N/C(=N\O)c1ccc([N+](=O)[O-])s1	1%	5.4	.	0.4
54	O=C(c1cnc2n(c1=O)CCS2)N(C1CCCCC1)C1CCCCC1	0%	-3.5	4.9	0.5
55	COc1ccc(Br)cc1CNC(=O)CCNC(=O)Cn1ccc2ccccc2c1=O	-5%	3.9	-2.4	1.1
56	COC(=O)c1ccccc1NC(=O)C1CC=CCC1C(=O)O (stereo not given)	8%	-3.9	.	-0.1
57	CCN(CC)CCN1C(=O)c2ccccc2NC1c1ccc(F)cc1 (stereo not given)	2%	-0.2	.	0.2
58	Cc1ccc(NC(=O)Cc2cccs2)cc1Cl	.	1.3	-3.1	-1.4

entry	RanGTP-Imp inh	Beta cell apopt	Calb FLC	T cruzi inh
49	-1.8	9	-8	0
50	?	-4	6	5
51	.	1	.	.
52	?	2	-3	-19
53	-3.3	8	-7	16
54	2.1	-6	2	-10
55	-1.8	-6	14	3
56	-3.4	.	-7	-11
57	-1.0	-4	-6	-5
58	0.1	-10	-7	-1

# Excerpt, entries 23 to 27
entry	compound	Vif A3G	LANA-H2B inh	AF4-AF9 inh	Bfl-1 A1 inh
23	CCn1c2c(c3cc(C(=O)O)ccc31)CCCC2=O	-2%	-1.9	.	-1.2
24	Cc1cc(=O)oc2c(CN3CC(C)OC(C)C3)c(O)c(Cl)cc12 (stereo not given)	14%	6.7	-1.2	0.7
25	COc1ccccc1NC(=O)N1CCC(C(=O)c2ccc(Cl)cc2)CC1	1%	-4.2	-0.7	1.9
26	CN(C(=O)c1cccnc1)c1nc(-c2ccccc2)cs1	0%	2.6	.	0.7
27	Cn1c(CSCC(=O)Nc2ccccc2)nnc1SCc1ccccc1	-12%	-5.9	1.5	0.2

entry	RanGTP-Imp inh	Beta cell apopt	Calb FLC	T cruzi inh
23	-1.3	3	0	-1
24	34*	.	-7	-9
25	-0.7	-3	-2	3
26	2.7	-8	-45	-15
27	-1.0	-1	-3	4
